# Menin-MLL FL inh = displaces fluorescein MLL peptide from human menin; Fluorescence polarization, fluorescein-MLL peptide displacement from menin; FP activity change, % at 61.4 µM; 290,000 tested, under 10 active; AID 1766; inconclusive = falling polarisation curve, or a change in total fluorescence; inactive = total fluorescence flat and polarisation flat or rising; no compound was filed as active; the % refers to the polarisation; negative = inhibition;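 further: % of control where 0% means no effect; inhibitors lower the polarisation; unlabelled MLL peptide was the positive control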
# gsp antagonist = gsp mutant antagonism; gsp-mutant cells, cAMP HTRF, 30 min; control for the full effect not named in the record; Potency, µM (highest dose often 76.9 µM), inactives show top-dose activity change, negative = inhibition, usual class: inhibitors; 340,000 compounds, 0.4% hits; AID 624288; active = falling curve of any shape with a large fitted effect; inconclusive = falling curve, mostly with a smaller effect; inactive = flat or rising curve; cell line not stated here;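 further: intracellular cAMP measured with PDE inhibitor Ro 20-1724 present during compound exposure; potency means the concentration at half of the fitted maximal effect; on the % scale 0 is the no-effect control and ±100 the full control effect; nearly all actives have a fitted effect of over 65% in size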
#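 HTRF cAMP measurement after 30 min RT detection following 30 min, 37C compound treatment alongside […] (added as 300 uM solution) in G418-selected cells seeded at 2000/well and grown 16–24 h.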
# TRPV1 potentiator = human TRPV1 potentiation; Q8NER1; TRPV1-expressing cells, Fluo-8 calcium influx, capsaicin EC20 potentiation; host cell line not named in the record; control for the full effect not named in the record; potentiation, % at 8.33 µM; 320,000 compounds, 0.02% hits; active means potentiation above 80%; inconclusive means 30% to 80%; inactive means below 30%; further: 0% is about no effect
# Target sequence (Q8NER1 whole entry, looked up): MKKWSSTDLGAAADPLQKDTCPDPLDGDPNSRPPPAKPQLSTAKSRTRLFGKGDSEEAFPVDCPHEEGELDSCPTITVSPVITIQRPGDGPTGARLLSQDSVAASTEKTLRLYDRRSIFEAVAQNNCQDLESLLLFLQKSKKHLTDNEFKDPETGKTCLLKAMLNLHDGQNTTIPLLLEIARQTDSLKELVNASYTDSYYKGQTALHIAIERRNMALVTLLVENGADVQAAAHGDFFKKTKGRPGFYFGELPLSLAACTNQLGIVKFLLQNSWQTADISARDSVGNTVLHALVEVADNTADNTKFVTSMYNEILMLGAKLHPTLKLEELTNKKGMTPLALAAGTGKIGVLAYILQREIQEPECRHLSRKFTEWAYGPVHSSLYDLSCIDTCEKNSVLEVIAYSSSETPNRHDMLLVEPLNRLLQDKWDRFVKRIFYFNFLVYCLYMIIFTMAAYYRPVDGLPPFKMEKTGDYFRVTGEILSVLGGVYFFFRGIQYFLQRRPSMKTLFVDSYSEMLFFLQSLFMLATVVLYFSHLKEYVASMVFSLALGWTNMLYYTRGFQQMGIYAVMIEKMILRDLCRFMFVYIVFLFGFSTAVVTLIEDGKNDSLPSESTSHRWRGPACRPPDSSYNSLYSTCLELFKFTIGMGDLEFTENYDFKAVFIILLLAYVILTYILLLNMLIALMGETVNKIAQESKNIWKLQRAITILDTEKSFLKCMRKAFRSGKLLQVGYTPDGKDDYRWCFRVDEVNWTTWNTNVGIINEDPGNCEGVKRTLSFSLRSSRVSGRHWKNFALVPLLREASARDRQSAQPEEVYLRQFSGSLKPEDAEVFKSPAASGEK
#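 Cells expressing TRPV1 were dye-loaded with Fluo-8 and read kinetically: 10 s baseline, 3 min after compound (agonist portion), then 2 min after EC20 capsaicin (allosteric enhancer portion). Calcium-bound dye fluorescence at 480/520 nm.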
# CtBP-E1A blk = inhibitors of CtBP/E1A interaction | activity change, % (concentration not given with the values) | AID 651724 | 340,000 compounds, 0.49% hits | AlphaScreen GST-E1A/His-CtBP binding, 1536-well; active compounds read low; control for the full effect not named in the record; in the data active means activity change below about -65%; inconclusive means about -30% to -65%; inactive means above about -30%; further: on the % scale 0 is the no-effect control and ±100 the full control effect
#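 AlphaScreen with 125 nM GST-E1A and 125 nM His-CtBP (5X stocks) in Tris pH 8.0, 300 mM NaCl, BSA, Tween 20, TCEP. Compounds preincubated 2 h at 37 deg C, then glutathione donor/nickel acceptor beads added for 1 h at 37 deg C in dark.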
# Sfp PPTase inh = Sfp phosphopantetheinyl transferase inhibition. Biochemical Sfp PPTase activity, qHTS. Potency, µM, for inactives: max response, negative = inhibition, usual class: inhibitors. 310,000 compounds, 3.5% hits; active means well fitted inhibition curve with a large enough effect; inconclusive means small, poorly fitted or top-dose-only effect, or another doubt; inactive means no such curve, though single readings can be large or run the other way;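 further: the enzyme is Sfp with the accession as filed and its product quenches rhodamine fluorescence; potency means the concentration at half of the fitted maximal effect; 0% = enzyme reaction without inhibitor and -100% = no enzyme wells; top concentration of the series not given in the record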
#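 Sfp 15 nM + cpd, 15 min RT; start w/ rhodamine-CoA 5 uM, BHQ-2-YbbR 12.5 uM (final); 50 mM Hepes pH 7.6, 10 mM MgCl2, 0.01% NP-40, 0.01% BSA; read 525/598 nm at 0 and 30 min.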
# ClpP mod = qHTS Assay for Activators of ClpP; 340,000 compounds, 1.9% hits; ATP-dependent Clp protease proteolytic subunit (Bacillus subtilis (strain 168)), P80244; Potency, µM (titrated, usually from 57.5 µM), inactives show at the top dose activity change, negative = active; purified B. subtilis ClpP, FRET peptide cleavage, 20 min; active = well fitted falling curve with a large enough effect; inconclusive = small, poorly fitted or top-dose-only effect; inactive = no such curve, though single readings can be large or run the other way; further: potency means the concentration at half of the fitted maximal effect; the source files actives as falling curves though it sought activators and does not explain the sign; nearly all actives have a fitted effect of over 65% in size; many hits overshoot -100%
# Target sequence (P80244 whole entry, looked up): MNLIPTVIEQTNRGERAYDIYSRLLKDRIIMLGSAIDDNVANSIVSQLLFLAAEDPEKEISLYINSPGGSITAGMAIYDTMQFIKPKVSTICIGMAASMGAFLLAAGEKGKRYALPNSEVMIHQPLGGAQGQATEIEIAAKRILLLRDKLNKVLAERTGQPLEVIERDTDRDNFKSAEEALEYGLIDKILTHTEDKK
#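 Purified B. subtilis ClpP, 10 microg/mL final in Tris/HCl pH8 with KCl, BSA, glycerol and Tween-20, cleaved an Abz/nitrotyrosine-quenched decapeptide. Fluorescence (ex 320, em 430) was read at 0 and 20 min at room temperature. Delta was normalized to 5.8 microM ADEP and DMSO/no-enzyme controls.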
# gsp ag = agonists of gsp mutant (McCune-Albright syndrome). Potency, µM (series often up to 76.9 µM), for inactives: at the top dose activation (cAMP increase), usual class: activators. AID 624287. 340,000 compounds, 0.13% hits. gsp mutant cells, cAMP HTRF, 30 min; control for the full effect not named in the record; active = well fitted activation curve with a large enough effect; inconclusive = small, poorly fitted or top-dose-only effect, or another doubt; inactive = no such curve, though single readings can be large or run the other way; cell line not stated here;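 further: phosphodiesterase inhibitor Ro 20-1724 added with compounds to block cAMP breakdown; potency means the concentration at half of the fitted maximal effect; nearly all actives have a fitted effect of over 60% in size; about a fifth of the inactives were tested at one dose only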
#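 Cells in DMEM/10% FBS with G418 were pretreated with compounds in DMSO plus […] (300 uM stock) for 30 min at 37C. cAMP was measured by HTRF (cAMP-d2 plus anti-cAMP antibody-K) after 30 min at room temperature.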
# Numbers without * were called inactive; ? = inconclusive; / = no result given; [ ] = remark or other dose.
# The line under a structure holds: TRPV1 potentiator	CtBP-E1A blk	Sfp PPTase inh	gsp antagonist	Menin-MLL FL inh	gsp ag	ClpP mod
1	CC[C@]12c3[nH]c4ccccc4c3CCN1C(=O)C(CC(=O)NC(C)(C)C)C[C@@H]2C(=O)N1CCN(C(=O)C2CC2)CC1 (some centres not stated)
    /	4	/	7%	/	/	-3.0%
2	CCN(CC)C(=O)Cn1cc(SCC(=O)NC2CCCC2)c2ccccc21
    3	0	7%	-6%	-1.9	-10%[15.4 µM]	/
3	CC1(C)Cc2c(sc3nn[nH]c(=O)c23)CO1
    -1	2	-13%	-20%	-2.9	?	-1.2%
4	CC(C)n1c(N2CCN(C(=O)Nc3ccc(Cl)cc3)CC2)nc2ccccc21
    -15	7	12%	-5%	2.1	-3%	-0.4%
5	COc1cc(C(=O)NNC(=O)c2cccc(Cl)c2)ccc1OCC(=O)N1CCOCC1
    15	24	/	19%	/	-14%	-4.0%
6	CCS(=O)(=O)n1nc(-c2ccccc2)nc1SCc1ccccc1
    1	2	1%	0%	-1.3	1%	0.3%
7	CCOc1cc2[nH]c(=S)n(Cc3ccc(C(=O)NCCCN4CCOCC4)cc3)c(=O)c2cc1OCC
    28	0	12%	-3%	5.9	?	1.6%
8	CC(c1ccco1)N(C(=O)c1ccc(C#N)cc1)c1ccccn1 (configuration not stated)
    20	0	14%	-6%	6.4	29%	0.5%
9	Cn1nnc(NC(=O)c2ccccc2F)n1
    -1	4	3%	4%	4.5	?	-0.8%
10	C/C(=N\NC(=O)c1cc(-c2ccc(Br)s2)[nH]n1)c1ccncc1
    6	-21	13%	?	1.2	22%	/
11	Cc1cc2cc(NC(=O)c3ccco3)ccc2[nH]1
    6	-2	6%	-4%	14	2%	-0.3%
12	COc1cccc(C2C3=C(CCCC3=O)Nc3[nH]n(-c4ccccc4)c(=O)c32)c1 (configuration not stated)
    -34	0	18%	-25%	-5.0	11%	/
13	COc1ccc(NC(=O)COC(=O)CC2CC3CCC2C3)c([N+](=O)[O-])c1 (configuration not stated)
    -17	-10	-1%	7%	-1.0	-10%	2.7%
14	CC(=O)Nc1cc(C)nn1-c1nc2ccccc2s1
    -9	-8	9%	-51%	-1.7	-6%[15.4 µM]	/
15	CC(=O)Nc1ccc(S(=O)(=O)NCCC(=O)NCCOc2ccccc2)cc1
    11	2	/	9%	/	-20%	-2.0%
16	Cc1ccc(NC(=S)NNC(=O)CSc2nnc(-c3ccc(Cl)cc3)n2C2CCCCC2)cc1
    15	-1	13%	?	7.0	-32%	0.3%
17	Cc1ccccc1CN(C)C1CCN(C)CC1
    15	/	-5%	10%	-4.3	-8%	0.9%
18	Cn1c(=O)c2c(ncn2CC(N)=O)n(C)c1=O
    2	-1	13%	5%	-1.9	?	-0.1%
19	COc1cc(Cl)c(CNC[C@H]2O[C@@H](n3cnc(C(N)=O)n3)[C@H](O)[C@@H]2O)c(Cl)c1O
    /	2	/	4%	/	/	1.1%
20	Cc1cccc(CCN(Cc2cc3cccc(C)c3[nH]c2=O)C(=O)N2CCOCC2)c1
    -9	1	-3%	-13%	-0.6	-19%	-3.1%
21	COc1ccc([N+](=O)[O-])cc1NC(=O)c1cncc(Br)c1
    -5	1	5%	-8%	-4.4	9%	/
22	Cc1cccc(OC(=O)Nc2ccc(C(=O)O)c(O)c2)c1
    /	-1	/	/	/	-14%	4.0%
23	CC1CCC(NC(=O)c2cc(S(=O)(=O)N(C)C)ccc2N2CCCC2)CC1 (configuration not stated)
    -21	0	/	-7%	/	-3%[15.4 µM]	-2.0%
24	c1ccc(CNc2cnccn2)cc1
    8	4	14%	9%	5.7	-5%	3.2µM*
25	COc1ccc(OC)c(NC(=O)CCC(=O)Oc2ccc(C)cc2)c1
    ?	/	20%	3%	-0.6	-2%	-0.4%
26	O=C(NCC(c1ccco1)N1CCOCC1)C1CCCCC1 (configuration not stated)
    11	2	/	4%	/	4%[15.4 µM]	/
27	O=C(Nc1ccc(Br)c2cccnc12)c1ccc(Cn2cc(Cl)cn2)o1
    7	0	19%	?	-0.4	-10%	-1.9%
28	CC(C)CCNC(=S)Nc1ccccc1F
    0	0	-2%	4%	4.7	-2%[15.4 µM]	0.5%
29	O=C(CSc1nnc(C2CC2)n1Cc1ccccc1)c1cc2ccccc2o1
    5	-8	-13%	-11%	16	-35%[inhibitor]	-6.7%
30	O=C(COc1c(F)c(F)c(C(F)(F)F)c(F)c1F)Nc1ccc(N2CCOCC2)c(Cl)c1
    -1	4	5%	-28%	3.3	0%[15.4 µM]	-1.0%
31	COc1ccc(CNc2ccccn2)c(O)c1
    1	2	19%	11%	3.9	8%[15.4 µM]	0.4%
32	COc1ccccc1C(=O)NCCC(=O)N1CC(=O)Nc2ccccc21
    9	-1	-9%	-2%[15.4 µM]	-0.5	6%	-3.7%
33	Cc1nn(-c2ccccc2)c2nc(Cl)c(C(=O)O)cc12
    10	2	16%	-9%	-1.8	?	/
34	Cc1ccccc1NC(=S)NC1CC2CCC(C1)N2Cc1ccco1 (configuration not stated)
    0	0	22%	0%	0.5	-7%	-0.4%
35	CCCC(=O)CN1C(=O)C2(OCCO2)c2ccccc21
    16	6	7%	5%	-0.4	40%	-0.1%
36	CC(C)(C)c1ccc(S(=O)(=O)N2CCCC2C(=O)NC2=NCCS2)cc1 (configuration not stated)
    4	-2	15%	-11%	0.3	17%	2.2%
37	CCO[C@@H]1OC(C(N)=O)=C[C@H](c2ccccc2)[C@H]1CCCO
    -6	-8	-4%	5%	4.5	/	2.4%
38	CCOC(=O)/C(=C\c1ccccc1)C(=O)c1cc(C(C)=O)c(Nc2ccccc2)s1
    7	10	-7%	15%	7.7	-22%	-0.5%
39	Cn1nc(C(=O)NC(C)(C)C)c2ccccc21
    -3	-11	8%	6%	6.9	-26%	?
40	CCOC(=O)CSc1nnc(-c2ccccc2NC(=O)c2ccccc2)o1
    -16	7	-2%	0%	3.1	9%	-25%
41	O=C(CSc1ccc(-c2cccs2)nn1)c1cccs1
    -1	-2	9%	-7%	-2.4	27%	/
42	COC(=O)C1CCN(C(=O)Cc2ccc(C)cc2)CC1
    4	7	5%	8%	4.8	2%	2.8%
43	CC(C)N1CCc2c(sc(NC(=O)c3ccc(S(=O)(=O)N4CCc5ccccc54)cc3)c2C(N)=O)C1
    10	-10	-32%	-11%	?	10%	-4.8%
44	COc1ccc2oc(-c3ccccc3[N+](=O)[O-])cc(=O)c2c1
    -11	2	-6%	5%	0.6	10%[15.4 µM]	/
45	CC(NC(=O)CSC(=S)N1CCCC1)c1ccc(S(N)(=O)=O)cc1 (configuration not stated)
    -3	12	/	9%	/	-13%	-0.7%
46	COc1cccc(NC(=O)CN2C(=O)NC3(CCCCCC3)C2=O)c1
    /	-20	/	7%	/	28%	/
47	Nc1nc2ccccc2n1/N=C/c1ccc([N+](=O)[O-])s1
    -1	5	5%	-16%	-1.3	6%[15.4 µM]	-0.8%
48	O=C(O)c1ccc(N2N=C(c3ccccc3)CC2c2ccccc2)cc1 (configuration not stated)
    29	/	-18%	-13%	8.0	?	3.8%
49	CC(=O)C1CCC2C3CC(O)C4=CC(=O)CCC4(C)C3C(=O)CC12C (configuration not stated)
    /	1	/	7%	/	-16%	/
50	Cc1cccc(NC(=O)CSCC(=O)N(C)CCOc2ccc(Cl)cc2)c1
    -6	8	/	-10%	/	-11%[15.4 µM]	-2.3%

# More results follow.
# The line under a structure holds: TRPV1 potentiator	CtBP-E1A blk	Sfp PPTase inh	gsp antagonist	Menin-MLL FL inh	gsp ag	ClpP mod
51	CC(=O)c1ccc(NC(=O)CSc2nnc(C3CC3)n2C)cc1
    6	6	6%	9%	1.2	3%[15.4 µM]	/
52	CC(C)(C)n1nc(-c2ccc(F)cc2)c2c(N)ncnc21
    -36	2	10%	15%	3.3	2%	-23%
53	N#CCCN(C(=S)NC(=O)c1cccs1)c1ccccc1F
    15	2	/	-1%	/	?	0.3%
54	CC(C)c1ccccc1OCCCCN1CCCCC1
    /	/	/	12%	/	?	0.5%
55	O=C(Nc1cccc(NC(=O)c2cccs2)c1)c1ccc(Br)cc1
    7	-14	7%	-21%	2.6	-29%	/
56	COc1ccccc1NC(=O)CSc1n[nH]c(-c2ccccn2)n1
    4	-90*	-8%	3%	4.1	9%[15.4 µM]	-3.3%
57	Cc1ccc(S(=O)(=O)N2CCN(c3nc(CN4CCCC4)nc4sc(C)c(C)c34)CC2)cc1
    -1	-7	/	-20%	/	-20%	-5.9%
58	Cc1csc(SCC(=O)Nc2ccc(C)c(F)c2)n1
    -27	/	/	-3%	/	-15%	-3.5%
59	O=C(Cn1cnc2ccccc21)OCC(=O)N1CCc2ccccc2C1
    -6	-5	13%	7%	5.6	2%	-4.0%
60	CCCN(CCC)C(=O)Nc1ccc(F)cc1F
    -12	10	-2%	8%	4.0	-22%	0.6%

# Entries listed above shown as hits in CtBP-E1A blk:
no.	Structure	CtBP-E1A blk	Sfp PPTase inh	Menin-MLL FL inh	gsp ag
56	COc1ccccc1NC(=O)CSc1n[nH]c(-c2ccccn2)n1	-90*	-8%	4.1	9%[15.4 µM]

# Remaining list, next part
# The line under a structure holds: TRPV1 potentiator	CtBP-E1A blk	Sfp PPTase inh	gsp antagonist	Menin-MLL FL inh	gsp ag	ClpP mod
61	O=S(=O)(c1ccccc1)c1nc(-c2ccccc2F)oc1NCc1cccnc1
    1	-8	10%	-33%	-0.1	21%[15.4 µM]	-0.3%
62	COc1ccc(-c2cc(-c3nnc(COC(=O)C4CC4C)o3)c3ccccc3n2)cc1OC (configuration not stated)
    3	43	-5%	-11%	5.6	-16%	-16%
63	Cc1cc(/C=N/NC(=O)COc2cccc3cccnc23)c(C)n1-c1ccc(O)cc1
    7	12	-3%	13%	/	16%	2.0%
64	O=C(CSc1ccccn1)N1CCN(c2ccccc2)CC1
    -4	3	-17%	0%	0.4	-45%[inhibitor]	-2.3%
65	O=C(CC1CCCCC1)N1CCN(c2ccccn2)CC1
    -10	4	-1%	-6%	-2.0	6%	32µM*
66	CCOc1ccc(C(=O)Cc2ccccc2)cc1
    /	32	/	4%	/	2%	-4.0%
67	COCCNCCCOc1ccc(C)cc1Br
    24	/	-3%	35µM*	5.5	-75%[inhibitor]	0.9%

# Bioassay records from PubChem.
